N370S GC mod: qHTS Assay for Inhibitors and Activators of N370S glucocerebrosidase as a Potential Chaperone Treatment of Gaucher Disease; Lysosomal acid glucosylceramidase (Homo sapiens), P04062; N370S GC spleen homogenate, 4MU-glucoside fluorescence; Potency, µM (highest dose often 59.4 µM), for inactives: at the highest dose activity change, negative = inhibition, hits mostly inhibitors; 0.092% of 330,000 active; AID 2101, 2009;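 also: 0% = full enzyme activity and -100% = no enzyme basal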
FEN1 inh: qHTS Assay for the Inhibitors of Human Flap endonuclease 1 (FEN1). Recombinant FEN1 flap cleavage, fluorescence, 15 min. 0.35% of 390,000 active. Potency, µM (titrated, usually from 114 µM), for inactives: at the top dose activity change, negative = inhibition, actives largely listed as inhibitors. P39748; also: nearly all actives have a fitted effect of over 65% in size
Target sequence (P39748 whole entry, looked up): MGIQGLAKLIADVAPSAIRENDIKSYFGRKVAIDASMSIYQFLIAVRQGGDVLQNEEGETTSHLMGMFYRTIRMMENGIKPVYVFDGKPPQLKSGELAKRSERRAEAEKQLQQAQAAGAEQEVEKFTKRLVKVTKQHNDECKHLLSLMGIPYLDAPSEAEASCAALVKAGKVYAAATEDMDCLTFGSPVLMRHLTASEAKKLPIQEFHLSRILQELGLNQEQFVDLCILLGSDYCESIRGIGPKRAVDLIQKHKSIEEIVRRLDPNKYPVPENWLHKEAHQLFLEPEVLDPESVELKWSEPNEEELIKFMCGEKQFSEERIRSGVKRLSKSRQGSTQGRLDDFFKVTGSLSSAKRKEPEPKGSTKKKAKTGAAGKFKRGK
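FEN1 at 10 nM preincubated with compounds 15 min at room temperature, then flap DNA substrate added at 50 nM final. Signal read at 0 and 15 min; concentration-response fitted with four-parameter Hill equation.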
* hit, by the source's call; ? = inconclusive; nt = no result given; & = joins results of further samples. Calls follow the shape of the dose curve; as a rule, active = well fitted curve in the direction sought with a large enough effect; inconclusive = small, poorly fitted or top-dose-only effect, or another doubt; inactive = no such curve, though single readings can be large; an effect the other way counts as inactive or inconclusive. Unless noted, % is scaled to controls: 0 for no effect and ±100 for the full control effect; potency is read from the fitted curve at half-maximal effect. Not all compounds are listed; most or all hits stand in other tables.

Compound,N370S GC mod,FEN1 inh
CN(Cc1cccc(F)c1)CC(O)COCc1ccccc1Cl (stereo not given),9%,-18%
Cc1ccc(NC(=O)c2sc3nc(-c4ccncc4)ccc3c2N)cc1,nt,13%
O=C(Nc1ccccc1)C1CCCCC1,24%,-6%
Cc1cccc(C)c1NC(=O)CCCSc1nnc(N)s1,-16%,3%
COC(=O)Nc1ccc(S(=O)(=O)N(CCO)CC(F)(F)C(F)F)cc1,-2%,16%
CCCN1CCN(C(=O)CCCNC(=O)c2ccc(Cl)cc2)CC1,1%,-8%
COC(=O)c1c(SC)nc2ccccc2c1OCc1ccc(Br)cc1,nt,-10%
CC(C)(C)NC(=O)C1N(c2cccnc2)C(=O)C2C(C(=O)Nc3ccccc3)C3(C)C=CC21O3 (stereo not given),-12%,7%
O=c1cc(O)nc(-c2ccccc2)s1,-7%,-1%
CC(=O)c1cccc(N/C=C\c2nnnn2-c2ccc(F)cc2)c1,1%,-3%
Cc1ccccc1OCc1nc(-c2ccc(NC(=O)c3cccs3)cc2)no1,1%,-3%
Cc1c(C(=O)N2CCN(c3ccccc3)CC2)sc2ncnc(N3CCN(c4ccccn4)CC3)c12,2%,-4%
Cc1ccccc1N1CCN(C(=S)c2ccc(-c3ccc([N+](=O)[O-])cc3)o2)CC1,-13%,1%
O=C(CCc1n[nH]c(=O)[nH]c1=O)Nc1cccc([N+](=O)[O-])c1,-2%,-5%
O=C(CCNS(=O)(=O)c1cccs1)Nc1nccs1,3%,2%
COC(=O)c1ccc(NC(=S)NCCCn2ccnc2)cc1,7%,2%
O=C(OCC(=O)N1CCCCCC1)c1n[nH]c(=O)c2ccccc12,16%,-10%
COc1ccc(OCc2cc(C(=O)N(C)Cc3nccn3C)no2)c2ccccc12,1%,5%
CCN(CC)CCN(C(=O)CN1C(=O)c2ccccc2C1=O)c1nc2cc3c(cc2s1)OCO3,-13%,-18%
COc1ccc(C2=C3C(=O)OCC3Cc3ncn(Cc4ccccc4)c32)cc1 (stereo not given),nt,15%
NC(=O)NC(CC(=O)NNC(=O)c1ccccn1)c1ccc(Cl)cc1 (stereo not given),nt,-1%
CCOC(=O)C1CCCN(C(=O)c2cccc(S(=O)(=O)N(C)c3ccc(C)cc3)c2)C1 (stereo not given),nt,-10%
CCN(C(=O)c1cccnc1)c1ccccc1,4%,-4%
COc1ccc(N(C)C(=S)Oc2ccc(C(=O)Nc3ccccc3)cc2)cc1,0%,nt

Looked up one by one from the list above (5):
Compound,N370S GC mod,FEN1 inh
CCN(CC)CCN(C(=O)CN1C(=O)c2ccccc2C1=O)c1nc2cc3c(cc2s1)OCO3,-13%,-18%
COc1ccc(C2=C3C(=O)OCC3Cc3ncn(Cc4ccccc4)c32)cc1 (stereo not given),nt,15%
O=c1cc(O)nc(-c2ccccc2)s1,-7%,-1%
O=C(OCC(=O)N1CCCCCC1)c1n[nH]c(=O)c2ccccc12,16%,-10%
COC(=O)c1c(SC)nc2ccccc2c1OCc1ccc(Br)cc1,nt,-10%

5 entries from above, arranged by the number in FEN1 inh, largest number first:
structure	FEN1 inh
COc1ccc(C2=C3C(=O)OCC3Cc3ncn(Cc4ccccc4)c32)cc1 (stereo not given)	15%
COC(=O)c1ccc(NC(=S)NCCCn2ccnc2)cc1	2%
NC(=O)NC(CC(=O)NNC(=O)c1ccccn1)c1ccc(Cl)cc1 (stereo not given)	-1%
CCOC(=O)C1CCCN(C(=O)c2cccc(S(=O)(=O)N(C)c3ccc(C)cc3)c2)C1 (stereo not given)	-10%
CCN(CC)CCN(C(=O)CN1C(=O)c2ccccc2C1=O)c1nc2cc3c(cc2s1)OCO3	-18%

A portion of the results above, as a working copy:
Compound,N370S GC mod,FEN1 inh
Cc1ccccc1N1CCN(C(=S)c2ccc(-c3ccc([N+](=O)[O-])cc3)o2)CC1,-13%,1%
O=C(CCc1n[nH]c(=O)[nH]c1=O)Nc1cccc([N+](=O)[O-])c1,-2%,-5%
O=C(CCNS(=O)(=O)c1cccs1)Nc1nccs1,3%,2%
COC(=O)c1ccc(NC(=S)NCCCn2ccnc2)cc1,7%,2%

(further entries)
Compound,N370S GC mod,FEN1 inh
CCn1cc(C(=O)NCc2ccc3c(c2)OCO3)c2cc(OC)c(OC)cc2c1=O,?,11%
Cc1ccccc1CC(=O)N1CC(C)OC(C)C1 (stereo not given),2%,-4%
COc1ccc(C(=O)/C=C/c2ccc(C)cc2)c(OC(=O)c2ccc([N+](=O)[O-])cc2)c1,12%,-10%
Cc1cccc(NC(=O)CN2C(=O)CSc3ccc(S(=O)(=O)N4CCCC4)cc32)c1C,nt,1%
COc1ccc([C@H]2CC(=O)C=C(c3ccc(C(=O)O)cc3)C2)cc1OC,nt,-4%
NC[C@](O)(CS(=O)(=O)O)c1ccc(Cl)cc1,-3%,nt
O=C(O/N=C1\CCS(=O)(=O)c2sccc21)c1ccc(F)cc1,0%,-9%
Cc1ccc(N(C(=O)c2csnn2)C(C(=O)NCc2ccccc2)c2ccccn2)cc1 (stereo not given),-2%,-3%
CCOC(=O)Cn1cc(/C=N/N2C(=O)C3C4C=CC(C4)C3C2=O)c2ccccc21 (stereo not given),18%,2%
CCc1ccc(CNC(=O)C2CCC(=O)N2C2CCCCC2)cc1 (stereo not given),2%,-3%
O=C(Cn1cc2c(n1)CCCC2)NCc1cccnc1,10%,-1%
COc1cccc(NC(=O)C(OC(=O)c2cnc(C)cn2)c2ccccc2)c1 (stereo not given),-2%,-7%
CCOc1ccc(C2C(C(=O)c3ccc(C)o3)=C(O)C(=O)N2c2nc(C)c(C(=O)OC)s2)cc1 (stereo not given),2%,-9%
CC(C)=C(NC(=O)c1ccccc1)C(=O)NCCc1nc2ccccc2[nH]1,-1%,-4%
CCCCC[C@@H]1C=C(C(=O)O)[C@H](c2ccc(C#N)cc2)N1S(=O)(=O)c1ccc(C)cc1,nt,2%
COc1cccc(C(=O)c2cn(CC(=O)Nc3cc(Cl)c(OC)cc3OC)c3nc(C)ccc3c2=O)c1,nt,9%
Cc1cccn2c(=O)cc(CSc3nnc(NC(=O)c4ccc(F)cc4)s3)nc12,nt,-3%
O=C(O)c1cnn2cc(-c3[nH]ncc3[N+](=O)[O-])cnc12,11%,1%
CCN(c1ccccc1)S(=O)(=O)c1cc(C(=O)NCc2ccccn2)ccc1C,-2%,-7%
O=C1Cc2ccccc2Sc2ccc(Cl)cc21,9%,-5%
Nc1nc2ncc(CNc3ccc(C(=O)NC(CCC(=O)O)C(=O)O)cc3)nc2c(=O)[nH]1 (stereo not given),4%&0%&-6%,-13%
COCCNC(=O)C(c1ccc(F)cc1)N(CCOC)C(=O)CCC(=O)Nc1ccccn1 (stereo not given),-3%,15%
CCNC(=O)NC(=O)CSc1ccc(S(=O)(=O)N2CCCCC2)cn1,nt,2%
CCN=C1S/C(=C\c2cn(CC(=O)NCc3ccco3)c3ccccc23)C(=O)N1CC,0%,7%
CCOC(=O)C1C(c2ccccc2O)NC(=O)NC1(O)C(F)(F)F (stereo not given),3%,17%
O=S(=O)(Nc1ccc(N2CCOCC2)cc1)c1ccc2ccccc2c1,11%,-14%
CC1=C(C(=O)OC2CCCCCC2)C(c2ccccc2Cl)CC(=O)N1 (stereo not given),nt,-21%
O=C(NC1CC1)C1CCN(C2CCN(C(=O)/C=C/c3ccc(F)cc3)CC2)CC1,-3%,4%
O=C(CCn1nnc(-c2cccs2)n1)N1CCc2ccccc2C1,15%,-12%
CC(C)(C)C(=O)CN1C2=NCCN2c2ccccc21,-2%,-1%
Cn1ncc(Cl)c1C(=O)NNC(=O)Nc1cccc2ccccc12,1%,-2%
Cc1cccc(NC(=S)N2CCOCC2)c1C,-2%,-6%
O=C(N/N=C/c1cccn1-c1ccc([N+](=O)[O-])cc1)C(O)c1ccccc1 (stereo not given),0%,-17%
COc1ccc(N2CCN(Cc3nc4c(c(=O)n(C)c(=O)n4C)n3C(C)C(C)=O)CC2)cc1 (stereo not given),1%,-3%
COc1ccc2c(=O)c(-c3ccc4c(c3)OCO4)coc2c1,5%&-8%,-9%
CC(C)c1ccc(Nc2c(-c3ccco3)nc3ccccn23)cc1,nt,-27%
Cc1ccc(CSc2nc3cccnc3n2Cc2ccc(C(=O)NC3CC3)cc2)cc1,nt,1%
Cc1nnc(SC(C)C(=O)Nc2ccc3ccccc3c2)[nH]c1=O (stereo not given),0%,-15%
CCOC(=O)NC1(C(F)(F)F)C(=O)N(Cc2ccccc2)C2=C1C(=O)CC(C)(C)C2 (stereo not given),12%,-15%
COc1cc(-c2nc(Cn3nnc(C(=O)Nc4cccc(Cl)c4)c3C)c(C)o2)cc(OC)c1OC,nt,-5%
COc1ccc(/C=N/N2CCN(C3c4ccccc4-c4ccccc43)CC2)cc1OC,10%,-16%
O[C@@H]1[C@@H](O)C=C2CCN3Cc4cc5c(cc4[C@H]1C23)OCO5 (stereo not given in full),?,-9%
CCOC(=O)C1(Cc2ccccc2Cl)CCN(S(C)(=O)=O)CC1,0%,-10%
CCC(C(=O)OCC(=O)Nc1cccc(S(=O)(=O)NC2=NCCCCC2)c1)c1ccccc1 (stereo not given),12%,nt
Cc1ccc(Cl)cc1NC(=O)CCCn1c(=O)c2cccn2c2ccccc21,nt,-17%
CCOc1cc(C2/C(=C(/O)c3ccc(OC)cc3)C(=O)C(=O)N2CC2CCCO2)ccc1O (stereo not given),-18%,0%
O=C(c1ccc(Cl)s1)N1CCCC(N2CCN(c3ccc(F)cc3)CC2)C1 (stereo not given),-5%,13%
COc1ccc(C(=O)N/C(=C\c2cn(C)c3ccccc23)C(=O)N2CCOCC2)cc1,1%,-3%
CC(=O)Nc1ccc(S(=O)(=O)Nc2nc3n(n2)C(c2ccccc2)CC(=O)N3)cc1 (stereo not given),8%,-1%
COC(=O)/C(=C1/Oc2ccc(C)cc2S1)C(F)(F)F,-6%,15%
Cc1ccc(NC(=O)C(C)c2ccc(-c3ccccc3)c(F)c2)c(C)c1 (stereo not given),1%,-11%
CCOc1ccc(CCNC(=O)COC(=O)CSc2ccccc2C)cc1OCC,-11%,5%
COC(=O)c1cc(OC)c(OC)cc1NC(=O)CN1CCOCC1,7%,-4%
O=P(O)(C(O)c1ccccc1)C(O)c1ccccc1 (stereo not given),-19%,-11%
CSCCC(NS(=O)(=O)c1ccccc1)C(=O)Nc1nccs1 (stereo not given),0%,5%
Cc1cnc(C(=O)N2CCN(S(=O)(=O)c3ccc(F)c(F)c3F)CC2)cn1,nt,-8%
O=C(COC(=O)C1=COCCO1)Nc1ccc(Cl)cn1,nt,17%
Cn1cnnc1SCC(=O)Nc1ncc(C(F)(F)F)cc1Cl,12%,-6%
O=C(CCn1c(=O)c2cccn2c2ccc(F)cc21)NCCc1ccccc1Cl,nt,25%
CC(C)=CCC/C(C)=C/C=N/NC(=O)c1ccc([N+](=O)[O-])cc1,4%,4%

Taken from above.
`O=C(CCn1c(=O)c2cccn2c2ccc(F)cc21)NCCc1ccccc1Cl` in FEN1 inh is listed with 25%
`CCOc1ccc(CCNC(=O)COC(=O)CSc2ccccc2C)cc1OCC` in FEN1 inh is listed with 5%

The listing continues.
Compound,N370S GC mod,FEN1 inh
COc1cc(OC)cc(-n2nnnc2SCC(=O)NCCc2ccc(OC)c(OC)c2)c1,9%,3%
CC1CCCN(C(=O)c2ccc3c(c2)C(=O)N(CCC2=CCCCC2)C3=O)C1 (stereo not given),7%,-21%
COC(=O)c1ccc(C)c(NS(=O)(=O)c2ccc(NC(C)=O)cc2)c1,0%,0%
O=C(Nc1nnc(C2CC2)s1)C1Cc2ccccc2CN1S(=O)(=O)c1ccccc1F (stereo not given),10%,-8%
CCn1c(-c2csc(-c3ccc(Cl)cc3)n2)n[nH]c1=S,6%,7%
Cc1ccc(C)c(SCC(=O)NC(=O)NC2CCCC2)c1,nt,1%
CC(=O)NC(C)C(=O)OCc1ccc(Cl)cc1Cl (stereo not given),-4%,10%
COc1ccc(N2CCN(C3CCCCC3NS(=O)(=O)c3ccccc3)CC2)cc1 (stereo not given),-2%,-21%
N#CCCN(C(=O)CN1CCN(S(=O)(=O)c2ccc(Cl)s2)CC1)c1ccc(F)cc1,nt,3%
Cc1cc(OC(C)C(=O)NCc2ccccn2)c2c(C)cc(=O)oc2c1 (stereo not given),-7%,-2%
CCOC(=O)CSc1nc2ccc(NC(=O)c3ccc(C)cc3)cc2s1,nt,-11%
Cc1cccc(C(=O)NNC(=O)CN2C(=O)c3ccccc3C2=O)c1,-2%,1%
CCN(Cc1ccccc1)C(=O)CCNS(=O)(=O)c1ccc2c(c1)CC(C)N2C(C)=O (stereo not given),-9%,20%&4%
N#CC(Cc1ccc(OC(F)F)cc1)c1nc2ccccc2[nH]1 (stereo not given),-3%,-5%
CCOC(=O)c1oc2ccc(S(=O)(=O)n3nc(-c4ccccc4)cc3N)cc2c1C,-14%,-30%
OCCC1CN(Cc2cccn2-c2ncccn2)CCN1Cc1ccc(F)cc1 (stereo not given),-12%,1%

Bioassay records deposited in PubChem BioAssay by National Center for Advancing Translational Sciences (NCATS).
